Screening data deposited in PubChem BioAssay by ICCB-Longwood Screening Facility, Harvard Medical School.
S aureus helic = inhibitors of S. aureus replicative helicase, primary screen, biochemical, fluorescence unwinding readout; purified S. aureus helicase, fluorescence unwinding assay; about half of the hits fall short of the stated cut; replicative DNA helicase (DnaC/DnaB), Staphylococcus aureus; 120,000 tested, 0.05% active; inhibition, %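 (tested at about 80 µM)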;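 active = both duplicates at 50% or more, or one of them with a favoured structure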;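 also: 0% = mean of negative control wells and 100% = mean of positive control wells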
MgrA DNA FP = S. aureus MgrA activity modulators, primary screen, biochemical, S. aureus Newman, fluorescence polarization; AID 602314, 2012; 84,000 tested, 0.13% active; MgrA-DNA binding; inhibition, %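 (about 10 µg/mL by stock and volumes)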;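 active = above 50% in either of two replicates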;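 also: 0% = protein plus DNA without compound and 100% = DNA alone without protein; higher means less MgrA bound to DNA so lower polarization; one replicate is shown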
Active calls of the source: *; x = no result given.

SMILES	S aureus helic	MgrA DNA FP
CC1=C(C(=O)Nc2ccccc2F)C(c2ccccc2)C2=C(CC(c3ccccc3)CC2=O)N1 (centres undefined)	-19.0	x
O=C(OCCN1C(=O)c2ccccc2C1=O)c1ccccc1	9.0	3.1
C=CCn1ncc(OC)c(Cl)c1=O	8.0	0.5
CC1CC(C)CN(C(=O)c2ccc3c(c2)N(Cc2ccccc2)C(=O)c2ccccc2S3=O)C1 (centres undefined)	12.0	9.8
CC(Oc1cccc(Cl)c1)C(=O)O/N=C(\N)c1cccnc1 (centres undefined)	12.0	0.3
Cc1cc(N2CCOCC2)c(F)cc1C(=O)c1ccccc1	8.0	x
Oc1ccc(/C=N/n2c(-c3ccco3)csc2=Nc2ccc(F)cc2F)c(O)c1	5.0	x
CCN(CC)c1nc2c(c(=O)n(C)c(=O)n2C)n1CC(=O)c1ccc(OC)cc1	8.0	x
O=C(O)c1ccc(N2C(=O)CCC2=O)cc1	-7.0	-2.4
COC(=O)C1=C(Nc2ccccc2NC(=O)c2ccco2)CSC1	x	-0.6
COc1ccc(-c2cn3cccnc3n2)cc1NC(=O)c1cc(OC)c(OC)c(OC)c1	2.0	x
COc1ccc(N2C(=O)CC(SCC(=O)Nc3cc(C(F)(F)F)cc(C(F)(F)F)c3)C2=O)cc1 (centres undefined)	x	-0.5
Cc1cccc(C(C)C)c1NC(=O)c1cccnc1	-16.0	x
COc1ccccc1-n1c(-c2cccs2)nn(CN2CCCC(O)C2)c1=S (centres undefined)	-1.0	x
Cn1cc(C(=O)NCCCN2CCCC2)c2c3ccccc3n(C)c2c1=O	25.0	5.2
CC1CCc2nn(CC(=O)N3CCc4ccccc43)cc2C1 (centres undefined)	-18.0	x
CCn1c(SC(C)C(=O)NC(N)=O)nc2ccccc2c1=O (centres undefined)	-6.0	x
CSc1ncc(Cl)c(C(=O)Nc2nnc(SCc3ccc(F)cc3)s2)n1	-11.0	1.6
CCCCC(=O)N1c2ccccc2NC2=C(C(=O)CCC2)C1c1ccc(N(C)C)cc1 (centres undefined)	-12.0	x
COc1ccc2c(=O)c(-c3ccccn3)coc2c1	9.0	0.2
Cc1cc(NC(=O)Nc2cn(C)c(=O)c3ccccc23)no1	-4.0	2.3
Cc1ccc(S(=O)(=O)OCC23CC4CC(CC(C4)C2)C3)cc1	x	-1.7
Cc1cc(C(=O)OCC(=O)C(C)(C)C)c(C)o1	-17.0	-1.0
Cc1nn(CCC#N)c2c1P(=Nc1ccccc1Cl)(N1CCOCC1)N(C)C(c1ccccc1F)=N2 (centres undefined)	-9.0	x
O=C(Nc1ccc(-c2csnn2)cc1)c1c(F)cccc1Cl	x	0.2
Cc1nnsc1C(=O)N1CCC(C(F)(F)F)CC1	-11.0	x
CN1CCCN(C(=O)c2sc3ccccc3c2Cl)CC1	-26.0	-1.2
CC1=C(C(N)=O)C(c2cccnc2)n2nnnc2N1 (centres undefined)	-2.0	1.3
O=C(NCCc1ccccc1)c1cc(-c2ccc3c(c2)OCO3)on1	2.0	x
Cn1c(=O)c2cc(C(=O)NCC3(c4ccccc4)CCCC3)sc2c2ccccc21	12.0	-1.6
CCC(C)N(C(=O)/C=C/c1cccs1)C(C)CC (centres undefined)	2.0	2.4
COc1ccc(-c2noc(N3CCC(C(=O)Nc4cccc(OC)c4)CC3)n2)cc1	7.0	-0.2
COc1ccc(/C=C/C(=O)O)cc1S(=O)(=O)N(C)CCO	-11.0	-0.8
C=C(C)c1cccc(C(C)(C)NC(=O)Nc2ccc(OC)nc2)c1	-46.0	x
C/C(CCn1c(=O)sc2ccccc21)=N\NC(N)=S	9.0	1.0
CCN(CC)C(=O)c1ccccc1NC(=O)Cc1ccccc1	0.0	-1.9
N#CCc1ccc(-c2nnco2)cc1	x	1.0
Cc1ccc(-c2nc3scc(-c4ccc(Br)cc4)c3c(=O)o2)cc1	x	3.8
O=C(Cc1cc(=O)[nH][nH]1)N/N=C/c1cccc(Cl)c1Cl	23.0	x
O=C1NCCC/C1=N/Nc1ccccc1	-7.0	x
Cc1onc(-c2ccccc2)c1C(=O)NNc1ccccc1C(F)(F)F	-2.0	x
C/C(=N/NC(=S)Nc1ccccc1)c1ccc2c(c1)OCO2	6.0	x
Cc1ccc(-c2csc(NC3OC(=O)c4ccccc43)n2)cc1 (centres undefined)	-20.0	x
CC1CC(C)CN(c2nc3c(c(=O)[nH]c(=O)n3C)n2Cc2ccccc2F)C1 (centres undefined)	8.0	-2.2
Cc1ccc2oc(=O)c3cnn(CC(=O)N(CC(C)C)CC(C)C)c3c2c1	9.0	x
N#Cc1cccc(NC(=O)c2ccc3ncsc3c2)c1	-6.0	x
OCCNc1nc2ccccc2nc1-c1ccccc1	13.0	7.4
CC(NC(=O)c1cccc(S(C)(=O)=O)c1)c1ccc2c(c1)OCCO2 (centres undefined)	-4.0	x
N#CC1(C#N)C(C(=O)c2ccc(F)cc2)C12CCSCC2 (centres undefined)	6.0	-1.5
CCc1cc(=O)[nH]c(-c2ccc(F)c(Cl)c2)n1	x	4.2
CCOc1ccc(SCC(=O)O)cc1	-4.0	x
CC1CN(S(=O)(=O)c2cccc3nsnc23)CC(C)O1 (centres undefined)	19.0	x
CC(C)Cn1cc(C(=O)N2CCN(Cc3ccc4c(c3)OCO4)CC2)c2c3ccccc3n(C)c2c1=O	-21.0	x
CCN1C(=O)c2cccc3c(NC(=O)C4CCCCC4)ccc1c23	-9.0	3.3
O=S(=O)(c1cccs1)N(c1cccc(F)c1)S(=O)(=O)c1cccs1	-23.0	x
O=c1nc2n(c3sc4c(c13)CCCC4)Cc1ccccc1C2	-148.0	x
O=C(O)Cn1c(-c2ccccc2)nc2ccccc21	6.0	-1.6
COc1ccc(N/N=C(\C#N)C(=O)Nc2ccc(C)c(C)c2)cc1	-24.0	x
Cc1ccc(CCNC(=O)c2ccc3nc(-c4ccco4)c(-c4ccco4)nc3c2)cc1	11.0	x
CCCC(=O)Nc1nnc(-c2cccc(OCC)c2)s1	3.0	x

Three compounds already listed, ordered by number of heavy atoms, lowest first:
SMILES	S aureus helic	MgrA DNA FP
O=C(O)Cn1c(-c2ccccc2)nc2ccccc21	6.0	-1.6
CCCC(=O)Nc1nnc(-c2cccc(OCC)c2)s1	3.0	x
O=c1nc2n(c3sc4c(c13)CCCC4)Cc1ccccc1C2	-148.0	x

Following part
SMILES	S aureus helic	MgrA DNA FP
O=c1[nH]c2ccccc2n1CCCSc1cc(C(F)(F)F)c2cc3c(cc2n1)OCO3	2.0	x
O=C(c1cc2cc(Br)ccc2oc1=O)N1CCOCC1	2.0	-0.1
COc1ccc(CCN(C)c2nnnn2-c2ccccc2)cc1OC	-5.0	x
CN(C)C(=O)COc1ccccc1C(=O)O	7.0	x
O=C(CSC1=NNC(c2ccccn2)S1)Nc1cccc(Cl)c1 (centres undefined)	-14.0	x
O=S(=O)(CCN1CCN(c2ccccc2)CC1)c1ccc(F)cc1	x	1.5
CC(=O)N1c2ccccc2C2=NNC(=S)NC21O (centres undefined)	10.0	-0.5
COC(=O)C(C)Nc1ncnc2onc(C)c12 (centres undefined)	-7.0	x
O=C(N/N=C/c1ccc(Cl)c(Cl)c1)N/N=C/c1ccc(Cl)c(Cl)c1	x	-1.3
CCOc1ccc(S(=O)(=O)NCc2cn3ccccc3n2)cc1	3.0	x
COc1ccc(S(=O)(=O)SC)cc1N	8.0	x
Brc1ccc(CN2CCC(N3CCCCC3)CC2)cc1	6.0	-0.6
O=C(Cn1c(=O)n(Cc2ccco2)c(=O)c2oc3ccccc3c21)NCc1ccccc1	17.0	x
N#Cc1c(NC(=O)CON2C(=O)CCC2=O)sc2c1CCCC2	-5.0	1.1
CC(=O)Nc1cccc(NC(=O)c2cccnc2)c1	-21.0	x
CC(C(=O)N(C)Cc1ccccc1)N1CCN(S(=O)(=O)c2ccccc2C(F)(F)F)CC1 (centres undefined)	6.0	x
NC(=O)NCc1cccs1	x	-2.2
COc1cc(/C=C2\CCCCC2=O)cc(OC)c1OC	x	-3.1
O=S(=O)(NCC1CCCO1)c1ccc(Br)s1 (centres undefined)	2.0	-1.6
O=S(=O)(N1CCCCC1)N1CCN(CC(O)COc2ccc3cc(Br)ccc3c2)CC1 (centres undefined)	-2.0	-0.4
COc1cc(/C=C2\SC(=Nc3cc(C)cc(C)c3)NC2=O)ccc1O	x	-2.6
O=C(Cc1c[nH]c2ccccc12)Nc1cccc(-n2cnnn2)c1	15.0	x
Cc1ccc2oc(=O)c3cnn(CC(=O)N4CCC(C)CC4)c3c2c1	12.0	x
CCN(CC)C(=O)c1c(C)oc2ncn(CC(C)C)c(=O)c12	-28.0	x
O=C1c2ccccc2OCC1(CO)CO	x	-1.8
CC(C)CNC(=O)c1ccc(CSc2ncn[nH]2)cc1	-3.0	x
c1n[nH]c2c1CNCC2	19.0	x
CCc1ccccc1Nc1nc(N)nc(COC(=O)Cn2cc(C(F)(F)F)ccc2=O)n1	-9.0	x
O=C(NCCN1CCOCC1)c1ccccc1Oc1ccccc1	3.0	-5.5
COC(=O)c1ccc(COCOCc2ccc(C(=O)OC)o2)o1	x	14.3
CSc1ncc(Cl)c(C(=O)Nc2ccc(S(=O)(=O)N3CCCCC3)cc2)n1	-11.0	0.8
Nc1ccnn1-c1ccccc1	-1.0	4.0
Cc1ccc(S(=O)(=O)CCSc2nccc(-c3cccs3)n2)cc1	x	-0.8
O=C(Oc1nsnc1N1CCOCC1)c1ccccc1	3.0	4.8
CNC(=O)c1ccc(N2CCOc3ccc(Cl)cc32)s1	-15.0	x
CCOC(=O)N1CCN(c2ccnc3cc(Cl)ccc23)CC1	14.0	x
FC(F)(F)c1nnc(Nc2ccc(Cl)cc2)s1	x	1.5
Oc1ccc(-c2n[nH]c(C(F)(F)F)c2-c2cnn(-c3ccccc3)c2)c(O)c1	-4.0	x
O=C(ON1C(=O)c2ccccc2C1=O)c1ccc(F)cc1	20.0	x
CCOc1ccc(N=C2SC(C(=O)Nc3ccc(C)c(Cl)c3)CC(=O)N2C)cc1 (centres undefined)	x	1.5
CCc1cccc(N(c2nc(-c3ccc(OC)c(OC)c3)no2)c2nc(-c3ccc(OC)c(OC)c3)no2)c1	-18.0	x
COc1ccc(CC(=O)NC2CC2)cc1OC	-1.0	-2.5
CCOC(=O)c1ccc(NC(=O)c2cc3cc(Cl)ccc3oc2=N)cc1	10.0	x
Cc1cc2ccccn2c1C(=O)Nc1ccccc1	-4.0	-1.0
O=C(Nc1ccc2nc3n(c(=O)c2c1)CCCC3)C1COc2ccccc2O1 (centres undefined)	31.0	x
Cn1cc(Cl)c(C(=O)Nc2nc3ccc([N+](=O)[O-])cc3s2)n1	x	-0.9
CCOc1ccc(N=C2SCCCN2C(=O)C2=CC=CN3CCS(=O)(=O)N=C23)cc1	-2.0	x
Cc1ccc2cc(CCNC(=O)c3ccccc3)c(=O)[nH]c2c1	-6.0	x

Compounds shown so far containing a cyano group (6):
SMILES	S aureus helic	MgrA DNA FP
Cc1nn(CCC#N)c2c1P(=Nc1ccccc1Cl)(N1CCOCC1)N(C)C(c1ccccc1F)=N2 (centres undefined)	-9.0	x
N#CCc1ccc(-c2nnco2)cc1	x	1.0
N#Cc1cccc(NC(=O)c2ccc3ncsc3c2)c1	-6.0	x
N#CC1(C#N)C(C(=O)c2ccc(F)cc2)C12CCSCC2 (centres undefined)	6.0	-1.5
COc1ccc(N/N=C(\C#N)C(=O)Nc2ccc(C)c(C)c2)cc1	-24.0	x
N#Cc1c(NC(=O)CON2C(=O)CCC2=O)sc2c1CCCC2	-5.0	1.1

The results go on:
SMILES	S aureus helic	MgrA DNA FP
Cc1ccc(S(=O)(=O)C2(C(=O)Nc3ncccc3C)CC2)cc1	8.0	-3.3
CCC1(CC)Cc2ccccc2-c2[nH]c(=S)n(Cc3ccccc3)c(=O)c21	8.0	2.5
CCC(C)NC(=O)c1cc2cc3cc(OC)ccc3nc2o1 (centres undefined)	18.0	-1.5
O=S(=O)(Cc1ccc(F)cc1)Cc1noc(-c2ccc(F)cc2Cl)n1	x	-3.0
COc1ccc(C2NC(=O)NC(C)=C2C(=O)OC2CCCC2)cc1Br (centres undefined)	x	-0.1
O=C1CNC(=S)N1Cc1ccccc1Cl	x	0.0
O=C(c1cccs1)N1CC=C(c2ccccc2)CC1	-3.0	x
NNC(=O)c1nnn(-c2nonc2N)c1CN1CCCC1	8.0	0.1
CCOC(=O)C1=C(C)NC2=C(C(=O)C(C(=O)OC)C(C)C2)C1c1ccccc1 (centres undefined)	7.0	0.7
C/C(=N\NC(N)=O)c1ccc(C#N)cc1	-7.0	x
CC(C)(CNC(=O)c1ccc2nc[nH]c2c1)N1CCOCC1	-4.0	x
COC(=O)C1=C(C)NC(=O)CC1c1ccccc1I (centres undefined)	10.0	-1.2
N#CCS(=O)c1ccccc1 (centres undefined)	x	0.8
COc1ccc(N2CCN(CCCn3c(NN)nc4ccsc4c3=O)CC2)cc1	-6.0	-0.1
COC(=O)c1cc2sccc2n1CC(=O)c1ccccc1	6.0	2.2
O=C(CCc1n[nH]c(=S)[nH]c1=O)NCCc1ccc(Cl)cc1Cl	1.0	x
O=C(c1cc2ccccc2o1)N1CCCC1	10.0	-29.1
COc1ccc(CC(C#N)C#N)cc1	x	-5.0
Cc1cccc(C)c1NC(=S)N1CCCc2ccccc21	x	-1.0
CC(=O)Oc1ccc(C(=O)N(C(=O)c2ccc(OC(C)=O)cc2)c2cc(C)ccn2)cc1	10.0	4.2
O=C(NCc1ccco1)NC1CCCN1S(=O)(=O)c1ccc(Cl)cc1 (centres undefined)	7.0	x
CCCC(=O)N=c1sc2cc(Cl)ccc2n1CC	-13.0	x
CCc1ccc(OCC(O)CN2CCCCC2)cc1 (centres undefined)	-16.0	x

Complete entries, quoted from the list.
C/C(=N\NC(N)=O)c1ccc(C#N)cc1 as listed: S aureus helic: -7.0; MgrA DNA FP: x
Cc1ccc(-c2nc3scc(-c4ccc(Br)cc4)c3c(=O)o2)cc1 as listed: S aureus helic: x; MgrA DNA FP: 3.8

Not all compounds are listed, so the mix of outcomes need not match the whole.
